MT1-MMP act inh – MT1-MMP (human) activation inhibition | P50281 | HT1080 RFP-PRO-GFP cells, GFP/RFP ratio fluorescence, overnight; percent of plate control window, DMSO zero | GFP/RFP ratio change, % at 20 µM | hit rate 0.061% among 360,000;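 active = GFP/RFP ratio change of at least 30% with cell ATP level not reduced by more than half and red fluorescence within 50% of control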; also: strong numbers were not always called active
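system = RFP-PRO-GFP reporter HT1080 cells | dosing = 20 µM single dose, 1% DMSO | timing = overnight cell settling, then overnight compound exposure, 37 °C, 5% CO2 | read-out basis = GFP/RFP fluorescence ratio | controls = DMSO and RFP-L50D-GFP cell wells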
PABP FP inh – blocks human PABP binding to poly(A) RNA; fluorescence polarization; inhibition, % at 35 µM; hit rate 1% among 290,000; AID 2014;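 active = 50% or more with normal probe brightness, or confirmed in later tests; inconclusive = above 50% with abnormal brightness, or retests that disagree; inactive = below 50% or failed in later tests; about a fifth of its hits are not listed in these tables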;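 also: calls also rest on retests at 20 µM and on dose response follow-up; controls were probe without protein and protein plus probe with vehicle; some compounds called inactive have numbers as strong as hits; many hits fall short of the cut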
Target sequence (P11940 whole entry, looked up): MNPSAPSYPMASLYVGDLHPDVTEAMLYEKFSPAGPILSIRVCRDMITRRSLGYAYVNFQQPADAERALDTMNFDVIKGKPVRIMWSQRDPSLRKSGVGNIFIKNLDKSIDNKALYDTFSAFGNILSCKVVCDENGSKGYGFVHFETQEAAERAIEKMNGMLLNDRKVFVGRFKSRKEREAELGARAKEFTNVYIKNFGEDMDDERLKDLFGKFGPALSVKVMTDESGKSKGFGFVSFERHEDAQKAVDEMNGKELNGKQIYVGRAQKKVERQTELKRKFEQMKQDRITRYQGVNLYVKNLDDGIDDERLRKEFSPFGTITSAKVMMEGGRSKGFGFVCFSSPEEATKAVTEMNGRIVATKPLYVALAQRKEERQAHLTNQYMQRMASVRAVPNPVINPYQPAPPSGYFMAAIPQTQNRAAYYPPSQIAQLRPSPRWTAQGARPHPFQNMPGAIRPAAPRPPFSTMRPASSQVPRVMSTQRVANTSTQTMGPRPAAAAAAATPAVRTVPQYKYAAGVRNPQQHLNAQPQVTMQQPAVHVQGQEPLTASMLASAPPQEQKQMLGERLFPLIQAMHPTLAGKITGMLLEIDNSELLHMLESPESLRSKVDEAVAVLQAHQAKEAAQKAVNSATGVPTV
eIF4H inh – inhibitors of RNA binding by human eIF4H | eIF4H fluorescence polarization binding assay | hit rate 0.94% among 290,000 | AID 2012 | Q15056 | inhibition, % at 35 µM;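 active = 50% or more with normal probe brightness, or confirmed in later tests; inconclusive = above 50% with abnormal brightness, or retests that disagree; inactive = below 50% or failed in later tests; about a fifth of its hits are not listed in these tables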;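 also: calls also rest on retests at 20 µM and on dose response follow-up; 0% = protein and probe with vehicle and 100% = probe without protein; strong numbers were not always called active; many hits fall short of the cut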
Rce1 inh – inhibitors of yeast Ras-converting enzyme; hit rate 0.27% among 290,000; calls only; Q03530; yeast membranes, quenched prenylated peptide cleavage fluorescence; AID 2563;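 active = fall in fluorescence gain of 50% or more versus controls, with final raw signal at or below 3038400; inconclusive = same 50% fall but final raw signal above 3038400; inactive = fall in fluorescence gain under 50%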;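 also: plate controls were neutral control wells for no effect and wells lacking membranes for full effect; tested at 10 µM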
Env fusion inh – HIV envelope-mediated fusion inhibition; HeLa-JRFL Env/CEM21 cell fusion, luciferase; inhibition, % at 12.3 µM; hit rate 1.1% among 360,000; AID 651610;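 active = mean replicate inhibition score of at least 50 and every replicate individually at or above 50; inconclusive = only one of the two criteria met; inactive = mean below 50 and not all replicates reaching 50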;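 also: 0% = plate neutral controls and 100% = maraviroc near 300 nM; one replicate is shown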
CSC inhib – blocks cancer stem cells; cancer stem cell-like cells viability, luminescence; inhibition, % at 7.5 µM; AID 2717; hit rate 1.1% among 300,000;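 active = mean at 75% or more and at least half the replicates too; inconclusive = mean and replicates disagree; tested in HMLE shEcad cells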;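 also: 0% = median of negative and 100% = median of positive control wells; the first replicate is given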
UUG fidelity – yeast start codon fidelity modulation; S. cerevisiae UUG-firefly luciferase reporter, luminescence/redox ratio; activity score, % at 18.7 µM; hit rate 0.13% among 350,000; AID 602363;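 active = replicate mean at a twofold rise or more, about +100% in these data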;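 also: firefly luciferase made from a UUG start codon reports start codon fidelity; reporter light over untreated wells divided by growth signal over untreated wells; some hits fall short of that in this replicate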
eIF4H inh retest – also measured in eIF4H inh; calls as there; inhibition, %; compound at 20 µM; confirmation average;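 mean of two retest wells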
PABP FP inh retest – second read-out of PABP FP inh, no call of its own (marks repeat the call); inhibition, %; compound at 20 µM; confirmation repeats;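 mean of two retest wells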
MT1-MMP act inh RFP – further read-out of MT1-MMP act inh, marked with its call; RFP signal change, %; measured here: RFP expression control read;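 0 = vehicle wells; hits needed this value within 50% of zero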
Starred values were filed as active, the others as inactive; i = inactive; ? = inconclusive; . = not tested or not shown. Not all compounds are listed (hit frequency here may not be typical).

SMILES | MT1-MMP act inh | MT1-MMP act inh RFP | PABP FP inh | eIF4H inh | Rce1 inh | Env fusion inh | CSC inhib | UUG fidelity | others
N#Cc1ccccc1NC(=O)CN1C(=O)NC(Cc2c[nH]c3ccccc23)C1=O (stereo not drawn) | -3 | 5 | . | . | . | 2 | . | -3
O=C(Nc1ccc(N2CCOCC2)cc1)c1cc(-n2cnnc2)ccc1Cl | -6 | 1 | 5 | 0 | i | -7 | -8 | -8
CC(=O)N/C(=N/c1nc(C)cc(C)n1)Nc1cc(C)cc(C)c1 | -2 | 0 | -2 | -3 | i | 5 | 14 | -3
Cc1nc([N+](=O)[O-])cn1CC(=O)Nc1ccc([N+](=O)[O-])cc1 | -2 | -4 | -2 | -3 | i | -3 | 3 | -20
CCOC(=O)c1c(NC(=O)CSc2nnc(CNc3ccc(OC)cc3)n2C)sc(C)c1C | -3 | -2 | -11 | 9 | i | 27* | -14 | .
COc1ccc(OC)c(C2C3=C(N=c4s/c(=C\c5cccc(O)c5)c(=O)n42)c2ccccc2CC3)c1 (stereo not drawn) | -40 | -37 | -6 | -9 | i | -87 | -2 | .
COc1cccc(CNC(=O)c2ccc(CS(=O)Cc3ccc(C)cc3)o2)c1 (stereo not drawn) | 2 | -5 | 13 | -9 | i | 9 | 24 | -14
COc1ccc(NC(=O)CCCn2c(=O)c3sccc3n(Cc3ccc(C)cc3C)c2=O)cc1 | 12 | -8 | 19 | -8 | i | -6 | -4 | -6
CCN(C(=O)CSc1nnc(-c2cccs2)o1)C1CCS(=O)(=O)C1 (stereo not drawn) | -1 | -2 | -17 | 3 | i | -9 | -6 | -6
O=C(Nc1cc(C(=O)N2CCOCC2)cc(C(=O)N2CCOCC2)c1)c1cc(F)c(F)cc1Cl | -4 | 1 | 6 | -7 | i | . | 13 | -1
O=C(NCc1ccccc1)N1CCN(c2ccc(Cl)c(Cl)c2)CC1 | 0 | -15 | 8 | 10 | i | . | 0 | -16
Clc1cnc(N/N=C/c2ccco2)c(Cl)c1 | -2 | 0 | -1 | 6 | i | -91 | 6 | -5

2 compounds drawn at random from those above:
SMILES | MT1-MMP act inh | MT1-MMP act inh RFP | PABP FP inh | eIF4H inh | Rce1 inh | Env fusion inh | CSC inhib | UUG fidelity | others
O=C(Nc1ccc(N2CCOCC2)cc1)c1cc(-n2cnnc2)ccc1Cl | -6 | 1 | 5 | 0 | i | -7 | -8 | -8
CCN(C(=O)CSc1nnc(-c2cccs2)o1)C1CCS(=O)(=O)C1 (stereo not drawn) | -1 | -2 | -17 | 3 | i | -9 | -6 | -6

The listing picks up, repeating the four entries before the break.
SMILES | MT1-MMP act inh | MT1-MMP act inh RFP | PABP FP inh | eIF4H inh | Rce1 inh | Env fusion inh | CSC inhib | UUG fidelity | others
CCN(C(=O)CSc1nnc(-c2cccs2)o1)C1CCS(=O)(=O)C1 (stereo not drawn) | -1 | -2 | -17 | 3 | i | -9 | -6 | -6
O=C(Nc1cc(C(=O)N2CCOCC2)cc(C(=O)N2CCOCC2)c1)c1cc(F)c(F)cc1Cl | -4 | 1 | 6 | -7 | i | . | 13 | -1
O=C(NCc1ccccc1)N1CCN(c2ccc(Cl)c(Cl)c2)CC1 | 0 | -15 | 8 | 10 | i | . | 0 | -16
Clc1cnc(N/N=C/c2ccco2)c(Cl)c1 | -2 | 0 | -1 | 6 | i | -91 | 6 | -5
CCCC(C)C(=O)Nc1nc(C)c(-c2csc(Nc3cc(Cl)ccc3C)n2)s1 (stereo not drawn) | 2 | -7 | -1 | -2 | i | 3 | -4 | -15
COc1ccc(-c2cc(=O)[nH][nH]2)cc1OC | 5 | 3 | 6 | 9 | i | -34 | -13 | -11
O=C(Nc1ccccc1OC(F)F)c1ccc(F)cc1 | -2 | 4 | -6 | -5 | i | . | -3 | -4
CC(=O)NNc1ncnc2ccccc12 | -2 | 2 | -12 | -7 | i | 7 | -6 | -13
CCN(CC)Cc1c(C(=O)N/N=C/c2ccco2)nnn1-c1nonc1N | 0 | 3 | -13 | -9 | i | -16 | -3 | -22
O=C(OCc1nc2ccc(Cl)cc2n1CCO)c1ccccc1C(=O)c1ccccc1 | 1 | 2 | 3 | 1 | i | . | -10 | .
Cn1cccc1Cc1nnc(SCC(=O)Nc2ccccc2F)n1-c1ccc(F)cc1 | 0 | -2 | -18 | -3 | i | 8 | -6 | -17
CC1(C)OC(=O)C(=Cc2ccc(-c3ccc(Cl)c(C(=O)O)c3)o2)C(=O)O1 | -8 | 6 | -6 | 36 | i | -10 | -5 | .
COC(=O)c1ccc(C(=O)OC)c(NC(=O)COC(=O)CCOc2ccc(C)cc2)c1 | 3 | 3 | . | . | i | . | -4 | -7
COc1ccc2c(c1)O[C@@]1(CCCC[C@@H]1C)CC2=O | 3 | -2 | . | . | i | -4 | 16 | -12
COc1ccc(CC(=O)N2CCC3(CC2)NCCc2[nH]cnc23)cc1 | 2 | 1 | . | . | i | 3 | -10 | -12
Cc1ccc(COC(=O)CN2C(=O)NC3(CCCCC3C)C2=O)cc1 (stereo not drawn) | 1 | 2 | . | . | . | 1 | . | -2
Cn1cc(/C=C/C(=O)N2CCCC(C(=O)c3ccc(C(F)(F)F)cc3)C2)cn1 (stereo not drawn) | -1 | 0 | -2 | -5 | i | -7 | 54 | .
CN1CCN(C(=O)/C(=C/c2cccs2)NC(=O)c2cccs2)CC1 | -1 | 1 | 4 | -13 | i | . | 2 | .
C=CCn1c(C)cc(/C([O-])=C(/C(=S)Nc2ccc(OC(F)F)cc2)[n+]2ccc(N(C)C)cc2)c1C | -1 | 5 | -2 | 13 | i | -6 | -1 | -21
COc1ccc(Cl)cc1NC(=S)NNC(=O)c1cccnc1 | 1 | 4 | -6 | 3 | i | 19 | -4 | .
COC(=O)[C@]1(C)N[C@H](CN(C)C(=O)Nc2ccccc2)[C@@H]2C(=O)N(Cc3ccccc3)C(=O)[C@@H]21 | 2 | 5 | . | . | . | 43 | . | -13
COc1cc2c(cc1CN1CCN(C(=O)c3cc(OC)c(OC)c(OC)c3)CC1)OCO2 | -3 | 0 | 7 | 7 | i | 1 | -2 | 35
CCOC(=O)c1ccc(NC(=O)COc2coc(CN3CCc4ccccc43)cc2=O)cc1 | -3 | -6 | . | . | i | 10 | -5 | -14
CCN1C(=S)N[C@@H](CCc2ccccc2)[C@H](C(=O)OC)[C@H]1C | 5 | 2 | 8 | -3 | i | -13 | -7 | -25
COCCNC(=O)C1CC(c2cccc(OC)c2)=NO1 (stereo not drawn) | 8 | 2 | 9 | -7 | i | . | -6 | .
Cc1ccc2oc(-c3ccccc3)nc2c1 | 4 | 4 | 1 | -4 | i | . | -11 | .
CCN1CCN(CCCNC(=O)c2cc3c(s2)-c2ccccc2OC3)CC1 | 5 | 3 | 9 | -10 | ? | -1 | -10 | 5
CCCOc1ccccc1C1CC(=O)Nc2cc3c(cc21)OCO3 (stereo not drawn) | -4 | -21 | 15 | 6 | i | . | -13 | -5
CC1(C(=O)NS(=O)(=O)c2cccc(OC(F)F)c2)CCN1C(=O)Cc1ccsc1 (stereo not drawn) | -2 | 5 | . | . | . | 32 | . | -21
CCOC(=O)Cn1nc(C)c(NC(=O)COc2ccc([N+](=O)[O-])c(C)c2)c1C | -7 | -11 | -1 | -4 | i | 8 | 4 | .
COc1ccc(CCC(=O)NCCc2ccc(OC)c(OC)c2)cc1 | -1 | -2 | -8 | -12 | i | 10 | 8 | 1
Cc1ccccc1C(=O)N1CCC(C(=O)NCc2ccc(Cl)cc2)CC1 | 2 | -3 | -10 | 0 | i | 4 | -17 | -9
CC1(C)C(=O)Nc2ccccc2N1C(=O)COc1cc(Cl)ccc1Cl | -10 | -5 | . | . | . | . | -5 | 3
CC(C)OC(=O)CSc1nc2ccccc2s1 | 0 | 0 | 2 | -8 | . | . | -3 | -9
COc1cccc(C2=NOC(C(=O)Nc3cc(C)on3)C2)c1OC (stereo not drawn) | 11 | 6 | -2 | -4 | i | -11 | -8 | -2
COc1cc(OC)c(C2=NOC(C(=O)NCc3ccc4c(c3)OCO4)C2)cc1Cl (stereo not drawn) | 8 | 2 | 4 | -4 | i | . | 34 | -16
Cc1cccc(-n2nc3c(c2NC(=O)c2cc4ccccc4o2)CS(=O)(=O)C3)c1 | 1 | 0 | -1 | -6 | i | -20 | -6 | -2
CCOc1cc(CN2CCN(c3cccc(C(F)(F)F)c3)CC2)ccc1O | 3 | 0 | -12 | 3 | i | 17 | 34 | -6
Cc1ccc(N2CC(C(=O)Nc3ccc(S(=O)(=O)NCC4CCCO4)cc3)CC2=O)cc1 (stereo not drawn) | 2 | -2 | 1 | -7 | i | 22 | -11 | -3
CC1CN(CC(=O)Nc2ccccc2Sc2ccccc2)CC(C)O1 (stereo not drawn) | -1 | -5 | 13 | 2 | i | 10 | 11 | .

Compounds listed so far that have an aryl thioether with sulfur outside any ring:
SMILES | MT1-MMP act inh | MT1-MMP act inh RFP | PABP FP inh | eIF4H inh | Rce1 inh | Env fusion inh | CSC inhib | UUG fidelity | others
CCOC(=O)c1c(NC(=O)CSc2nnc(CNc3ccc(OC)cc3)n2C)sc(C)c1C | -3 | -2 | -11 | 9 | i | 27* | -14 | .
CCN(C(=O)CSc1nnc(-c2cccs2)o1)C1CCS(=O)(=O)C1 (stereo not drawn) | -1 | -2 | -17 | 3 | i | -9 | -6 | -6
Cn1cccc1Cc1nnc(SCC(=O)Nc2ccccc2F)n1-c1ccc(F)cc1 | 0 | -2 | -18 | -3 | i | 8 | -6 | -17
CC(C)OC(=O)CSc1nc2ccccc2s1 | 0 | 0 | 2 | -8 | . | . | -3 | -9
CC1CN(CC(=O)Nc2ccccc2Sc2ccccc2)CC(C)O1 (stereo not drawn) | -1 | -5 | 13 | 2 | i | 10 | 11 | .

New compounds follow:
SMILES | MT1-MMP act inh | MT1-MMP act inh RFP | PABP FP inh | eIF4H inh | Rce1 inh | Env fusion inh | CSC inhib | UUG fidelity | others
Cc1ccc(NC(=O)c2ccc(OC(=O)COc3ccc(Cl)c(C)c3)cc2)cc1 | 5 | 4 | 2 | -7 | i | -21 | -11 | -16
COc1ccc2cc(C#N)c(N3CCN(Cc4nnnn4CCC(C)C)CC3)nc2c1 | 0 | -6 | 9 | -13 | i | 18 | . | -2
COc1ccc(C(=O)NCc2nnc(SCC(=O)NC3CCCCC3)n2C)cc1 | -3 | 1 | 19 | -9 | . | -9 | -3 | 349*
COc1cc(NC(=O)COc2cccc(OC)c2)cc(OC)c1 | 2 | -3 | -3 | -13 | i | -28 | 12 | -13
Cc1[nH]n(-c2ccc([N+](=O)[O-])cc2)c(=O)c1C=NCCN1CCN(C(=O)c2ccccc2F)CC1 | 3 | 3 | 8 | -8 | . | 6 | 45 | -15
CN1CCN(c2nc3ccccn3c(=O)c2C=C(C#N)C#N)CC1 | -3 | 6 | 1 | 7 | i | -15 | 1 | -20
CN(C(=O)/C=C/c1ccccc1)C1CCS(=O)(=O)C1 (stereo not drawn) | 9 | 13 | -3 | -8 | i | . | -5 | -3
Cc1occc1C(=O)NCc1ccccn1 | 0 | 4 | 10 | 11 | i | -31 | -11 | -30
CCOC(=O)c1cc(C)sc1/N=C/C1C(=O)CC(C)(C)CC1=O | 7 | 6 | 4 | -12 | i | 21 | . | -15
O=C(NCc1ccccn1)c1c(-c2ccccc2)sc2ccccc12 | 1 | -3 | . | . | . | -12 | 22 | 62*
Cc1ccc(N(CC(=O)NC(C)(C)C)C(=O)CNC(=O)c2cccs2)cc1C | 1 | 4 | 52 | 95 | i | -19 | -12 | . | eIF4H inh retest=8;PABP FP inh retest=6

Bioassay records as filed in PubChem BioAssay.
